Cruzain Triton: qHTS Assay for Promiscuous and Specific Inhibitors of Cruzain (with detergent). Cruzipain (Trypanosoma cruzi), P25779. 200,000 compounds, 0.43% hits. Potency, µM, without a hit: max response, negative = inhibition, hits mostly inhibitors. purified cruzain, Z-FR-AMC fluorescence, 0.01% Triton;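 further: plate controls were neutral wells for no effect and buffer without enzyme for full effect; nearly all actives have a fitted effect of over 40% in size; top concentration of the series not given in the record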
Target sequence (P25779 123-467 limits assumed): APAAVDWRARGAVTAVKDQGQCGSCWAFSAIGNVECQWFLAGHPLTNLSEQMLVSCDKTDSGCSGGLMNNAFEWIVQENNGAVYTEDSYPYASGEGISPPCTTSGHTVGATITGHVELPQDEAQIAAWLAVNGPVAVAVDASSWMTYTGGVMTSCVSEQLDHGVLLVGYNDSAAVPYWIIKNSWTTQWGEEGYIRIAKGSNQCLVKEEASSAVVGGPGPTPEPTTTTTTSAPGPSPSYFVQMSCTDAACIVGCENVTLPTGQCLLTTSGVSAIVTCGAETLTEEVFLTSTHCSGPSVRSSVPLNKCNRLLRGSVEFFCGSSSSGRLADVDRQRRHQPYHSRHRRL
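Z-FR-AMC hydrolysis (2 uM substrate) by cruzain (1.5 nM) monitored kinetically at ex 360/em 450 nm after 15 min room-temperature compound exposure; 0.01% Triton X-100, pH 5.5, 5 mM DTT.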
2A StopGo: High Throughput Screening for Foot and Mouth Disease Virus Antivirals. Potency, µM (series often up to 57.9 µM), for inactives: at the top dose signal change, negative = less light. human cells with a luciferase reporter of 2A StopGo recoding; control for the full effect not named in the record. 410,000 compounds, 1.2% hits; active = well fitted falling curve with a large enough effect; inconclusive = small, poorly fitted or top-dose-only effect; inactive = no such curve, though single readings can be large or run the other way; tested in HEK293T cells; further: on the % scale 0 is the no-effect control and ±100 the full control effect; nearly all actives have a fitted effect of over 45% in size; luciferase light after 4 h
Cruzain noTriton: qHTS Assay for Promiscuous and Specific Inhibitors of Cruzain (without detergent); purified cruzain, Z-FR-AMC fluorescence, no detergent; 200,000 compounds, 2.3% hits; Potency, µM, for inactives: max response, negative = inhibition, hits mostly inhibitors;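 further: plate controls were enzyme without inhibitor for no effect and buffer without enzyme for full effect; nearly all actives have a fitted effect of over 40% in size; top concentration of the series not given in the record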
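Detergent-free condition (0.00005% Triton X-100) in acetate buffer pH 5.5 with DTT. 1.5 nM enzyme and compound were pre-mixed 15 min, then 2 uM Z-FR-AMC substrate added; reaction progress from fluorescence change between first and third reads (60 s).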
NS1 function inh: qHTS Assay for Inhibitors of Influenza NS1 Protein Function | S. cerevisiae slowed by influenza A NS1, growth recovery by OD600 | Potency, µM (doses to about 46.1 µM), for the others: at the highest dose activity, positive = more growth | 270,000 compounds, 0.4% hits; active means well fitted rising curve with a large enough effect; inconclusive means small, poorly fitted or top-dose-only effect; inactive means no such curve, though single readings can be large or run the other way; further: nearly all actives have a fitted effect of over 50% in size
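Growth recovery, yeast-based: influenza A NS1 expressed in S. cerevisiae causes slow growth, and suppressors are detected by OD600. The parent strain without NS1 is used as positive control.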
LASV entry inh: qHTS for Inhibitors of binding or entry into cells for Lassa Virus; Lassa virus pseudotype entry inhibition, cell reporter; control for the full effect not named in the record; Potency, µM (highest dose often 37.9 µM), without a hit: at the top dose activity change, negative = inhibition, most hits filed as inhibitors; 300,000 compounds, 1.2% hits; AID 540256, 2011; active means well fitted inhibition curve with a large enough effect; inconclusive means small, poorly fitted or top-dose-only effect, or effect the other way; inactive means flat fitted curve, though single readings scatter; tested in HEK293 cells; further: on the % scale 0 is the no-effect control and ±100 the full control effect; nearly all actives have a fitted effect of over 50% in size; luciferase read-out
SARS PLP yeast: qHTS of Yeast-based Assay for SARS-CoV PLP. 330,000 compounds, 0.19% hits. Potency, µM (titrated, usually from 32.9 µM), for the others: at the highest dose activity, positive = growth rescue. S. cerevisiae expressing SARS-CoV PLpro, growth rescue; control for the full effect not named in the record. AID 485353, 2010; active means well fitted rising curve with a large enough effect; inconclusive means small, poorly fitted or top-dose-only effect; inactive means no such curve, though single readings can be large or run the other way; further: 0% is about no effect; nearly all actives have a fitted effect of over 55% in size; growth read by luminescence after 48 h
MARV entry inh: qHTS for inhibitors of binding or entry into cells for Marburg Virus; Marburg virus pseudotyped entry inhibition, cell reporter; control for the full effect not named in the record; about a third of the inactives were read at about 46 µM; Potency, µM (titrated, usually from 37.8 µM), inactives show at the highest dose activity change, negative = inhibition, actives largely listed as inhibitors; AID 540276, 2011; 300,000 compounds, 1.8% hits; active = well fitted inhibition curve with a large enough effect; inconclusive = small, poorly fitted or top-dose-only effect, or effect the other way; inactive = flat fitted curve, though single readings scatter; tested in HEK293 cells; about a fifth of its hits are not listed in these tables; further: on the % scale 0 is the no-effect control and ±100 the full control effect; luciferase read-out
RE007 growth inh: qHTS Assay for Inhibitors of the HIV-1 protein Vpr; S. pombe RE007 Vpr strain, BacTiter-Glo ATP luminescence, 24 h; control for the full effect not named in the record; Potency, µM (top dose mostly 92.2 µM), without a hit: at the top dose activity change, negative = less growth; 360,000 compounds, 0.21% hits; active = well fitted falling curve with a large enough effect; inconclusive = small, poorly fitted or top-dose-only effect; inactive = no such curve, though single readings can be large or run the other way;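 further: on the % scale 0 is the no-effect control and ±100 the full control effect; nearly all actives have a fitted effect of over 50% in size; the assay follows cell death caused by Vpr and the record does not say whether a fall means rescue or toxicity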
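Fission yeast RE007 carrying one integrated HIV-1 vpr copy, seeded at OD 0.01 in PMG+AL medium with 23 nL pinned compound. Grown 24 h at 30 degrees; viability read by BacTiter-Glo luminescence after 5 min.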
Starred values were filed as active, the others as inactive; ? = inconclusive; · = no result given; [ ] = another dose, or the depositor's remark. Unless noted, the call rests on the fitted dose curve; in most records, active means well fitted curve in the direction sought with a large enough effect; inconclusive means small, poorly fitted or top-dose-only effect, or another doubt; inactive means no such curve, though single readings can be large; an effect the other way counts as inactive or inconclusive. Potency means the concentration at half of the fitted maximal effect.

SMILES	Cruzain Triton	2A StopGo	Cruzain noTriton	NS1 function inh	LASV entry inh	SARS PLP yeast	MARV entry inh	RE007 growth inh
COc1ccc(NC(=O)C2CCN(S(=O)(=O)c3c(C)noc3/C=C/c3ccco3)CC2)cc1	-27%	-24%	-2%	·	1%[46.1 µM]	·	9%[46.1 µM]	·
CC(NC(=O)c1ccccc1NC(=O)CN1CCc2ccccc2C1)c1ccccc1 (stereo not given)	·	-11%	·	-2%	?	-8%	?	3%
COc1ccc(C(=O)CCN2CCN(c3ccccc3F)CC2)cc1	·	-7%	·	-34%	·	-5%	·	11µM*
O=C(Cn1ncc2c3ccccc3n(Cc3ccccc3F)c2c1=O)NCCCc1ccccc1	-2.6%	-2%	-3%	·	-3%[46.1 µM]	·	-10%[46.1 µM]	·
CCCc1nc2ccccc2c(=O)n1CCc1ccccc1	·	?	·	-40%	2.5µM*	2%	?	5%
Cc1ccc(CNC(=O)CN(Cc2cccs2)C(=O)C2(C)CC(=O)N=C3C=CC=CN32)cc1 (stereo not given)	-3.8%	-9%	2%	8%	8%	3%	4%	0%
O=C1NC(=O)C(=Cc2ccccc2Oc2ccc(F)cc2)C(=O)N1	·	-2%	·	·	·	-2%	2%[46.1 µM]	1%
O=C(Cn1c(=O)n(Cc2ccco2)c(=O)c2sc3ccccc3c21)Nc1ccccc1C(F)(F)F	-3.9%	-21%	8%	·	-6%[46.1 µM]	·	1%[46.1 µM]	·
COC(=O)COc1ccc(=O)n(-c2ccccc2)n1	-1.1%	-1%	-6%	0%	19%	0%	4%	6%
Cc1nc(SCc2ccc(Cl)c(Cl)c2)n[nH]1	·	0%	·	-133%	·	-19%	·	-11%
O=CN1CCN(C(=O)c2ccccc2Cl)CC1	2.5%	-17%	7%	7%	17%	-7%	-12%	-11%
O=C(NCc1cc(C(F)(F)F)cc(C(F)(F)F)c1)C1CC(c2cccc([N+](=O)[O-])c2)=NO1 (stereo not given)	-2.1%	0%	3%	-9%	·	3%	-2%	-1%
N#C/C(=C\Nc1ccc2cn[nH]c2c1)c1nc(-c2ccccc2)cs1	·	-24%	·	·	?	1%	?	-14%
C=C1C(O)C[C@H]2C(=C)CCC3[C@H](OC(=O)[C@]3(O)CO)[C@@H]12 (stereo not given in full)	-0.2%	-7%	2%	-1%	-17%	7%	-21%	21%
Nc1ccc(N2CCN(Cc3ccccc3Cl)CC2)c(Cl)c1	-0.9%	-11%	-16%	?	-23%	-2%	-18%	2%
CCOC(=O)C1CCCc2c1[nH]c1c(C(=O)O)cccc21 (stereo not given)	0.7%	·	-2%	-124%	-5%	9%	-16%	0%
Cn1nnnc1SCCNCc1cccc2ccccc12	2.6%	22%	-4%	-5%	36%[14.3 µM]	-1%	-19%	11%
COc1ccc(NC(=O)CCC(=O)c2cc(C)sc2C)cc1	·	-8%	·	·	11%	1%	6%	-27%
COc1ccc(-c2noc3c2-c2nc(-c4c(F)cccc4F)sc2CC3)cc1	·	?	·	-8%	·	0%	·	5%
Clc1cccc(Nc2nc(-c3ccncc3)nc3ccccc23)c1	·	-20%	·	-2%	?	0%	?	7%
C=CCNc1nc(Nc2ccccc2F)nc(OCC)n1	·	22%	·	·	-23%[46.1 µM]	-2%	16%[46.1 µM]	-13%
COc1ccc(S(=O)(=O)NCc2cccnc2)c2ccccc12	·	48%[activator]	·	-1%	15%[46.1 µM]	-9%	-21%[46.1 µM]	-4%
CCOC(=O)C1=C(C)N(c2nonc2NC(C)=O)C(N)=C(C#N)C1c1ccccc1F (stereo not given)	-0.2%	0%	0%	-4%	-4%	7%	-9%	0%
S=C(NC1CCCCC1)N1CCOCCOCCN(C(=S)NC2CCCCC2)CCOCC1	·	8%	·	5%	7%	11%	-18%[14.2 µM]	13%
O=C(CN(C(=O)c1csnn1)c1cccc2c1CCCC2)NCc1ccccc1	·	-6%	·	6%	?	-4%	-18%[46.1 µM]	-18%
Cc1ccc(S(=O)(=O)N(C)C)cc1NC(=O)C1CCCN(C(=O)c2ccc(Cl)cc2)C1 (stereo not given)	·	0%	·	·	?	-2%	?	8%
CCOC(=O)c1ccc(N2C(=O)CC(Sc3nc(O)c(CC)c(=O)[nH]3)C2=O)cc1 (stereo not given)	-1.0%	0%	-12%	-13%	9%	-9%	?	-8%
Cc1cc(C)n2nc(SCC(=O)Nc3cccc(C(F)(F)F)c3)nc2n1	-4.3%	-9%	13%	·	4%[46.1 µM]	·	-33%[46.1 µM]	·
O=C(NCC(=O)N(c1cccnc1)C(C(=O)NC1CCCC1)c1cccs1)c1cccs1 (stereo not given)	·	-6%	·	2%	·	1%	·	-7%
CC(C)CCC(C(=O)O)C(C)CC(=O)Nc1ccn(-c2ccccc2)n1 (stereo not given)	·	-8%	·	11%	·	2%	·	-8%
O=C(N=c1nc2ccccn2s1)c1ccccc1	1.7%	-32%	-17%	11µM*	44%[14.3 µM]	-1%	?	-25%
Cn1nc(-c2ccc(Cl)cc2)cc1NC(=O)Nc1ccccc1	·	42%[activator]	·	2%	5%	-2%	0%[46.1 µM]	1%
O=C(Nc1cccc(-c2cccc(Cl)c2)c1)C1CCN(Cc2ccc(CO)o2)CC1	·	-16%	·	10%	-10%[46.1 µM]	-1%	-23%[46.1 µM]	6%
COc1ccc(/C=C(\NC(=O)c2ccccc2)C(=O)NC2CCS(=O)(=O)C2)cc1 (stereo not given)	·	-9%	·	7%	·	-1%	·	-7%
COCCN(C(=O)COC(=O)CSc1ccccc1)c1c(N)n(Cc2ccccc2)c(=O)[nH]c1=O	·	-18%	·	·	2%	2%	2%[46.1 µM]	-2%
C/C(=N/NC(=O)c1cc(-c2ccccc2)nc2c(Cl)cccc12)c1cccnc1	·	-28%	·	9%	-16%	12%	-19%	-3%
Cc1ccc(CNC(=O)c2ccc(NC(=O)N3CCSc4ncccc43)cc2)cc1	-8.8%	-5%	-18%	·	-7%[46.1 µM]	·	·	·
COC(=O)c1ccccc1NC(=S)N1CCOCC1	·	-3%	·	21%	·	?	·	-5%
CCOC(=O)c1cnc(Nc2nc3ccccc3o2)nc1CSC(=S)N1CCCCC1	-0.9%	31%[activator]	7%	?	18%	9%	-11%	-16%
Oc1ccc(Cl)cc1CNCC1CCCO1 (stereo not given)	3.2%	-2%	1%	?	17%	8%	?	-2%
N#Cc1nc(Cl)c(Cl)c(NN)c1Cl	·	-21%	·	-9%	?	-7%	0%	8%
c1ccc(-c2nnc(CN3CCCc4ccccc43)o2)cc1	-3.6%	8%	?	?	2%	-4%	?	-14%
Cc1ccc(-n2c(CNc3ccc(F)cc3)nnc2SCC(=O)N2CCCC2)cc1	0.2%	20%	22%	-7%	-15%	1%	-4%	9%
CC(C)(C)OC(=O)N1CCC(c2c(C(=O)NCCN3CCC(Cc4ccccc4)CC3)cnn2-c2ccc(F)cc2)CC1	-1.5%	-12%	4%	·	?	·	·	·
CC(=O)Nc1ccc(SCC(=O)c2cc(C)n(-c3ccccc3F)c2C)cc1	-6.4%	?	?	-10%	?	-11%	6.5µM*	14%
COc1ccccc1NC(=O)C1=C(C)Nc2c(C(=O)Nc3cccc(C)c3)cnn2C1c1ccccc1Cl (stereo not given)	-5.9%	-4%	25µM*	·	-21%[46.1 µM]	·	·	·
CCN1C(=O)c2cccc3c(S(=O)(=O)Nc4ccccc4O)ccc1c23	·	8%	·	-8%	-16%[46.1 µM]	-5%	?	-1%
CC(=O)c1ccc(S(=O)(=O)Nc2ccc(-c3ccc4nncn4n3)cc2)cc1	·	38%[activator]	·	·	4%	7%	-16%	-12%
CC1CN(C(=S)Nc2cccc(Cl)c2)CC(C)O1 (stereo not given)	·	34%[activator]	·	5%	·	-3%	·	-9%
COc1cccc(-c2n[nH]c3c2CCC3)c1	·	14%	·	·	20%[46.1 µM]	0%	-25%[46.1 µM]	-18%

Following part.
SMILES	Cruzain Triton	2A StopGo	Cruzain noTriton	NS1 function inh	LASV entry inh	SARS PLP yeast	MARV entry inh	RE007 growth inh
CCCCN(C)S(=O)(=O)c1cc(-c2cc(C)no2)ccc1C	-4.8%	?	19%	·	-13%[46.1 µM]	·	·	·
Cc1cc(C)nc(NC(=NCCc2c[nH]c3ccccc23)NC(=O)Nc2ccc(Cl)cc2)n1	-0.8%	0%	25µM*	-7%	-2%	-9%	?	·
CN(C)c1cccc(F)c1C(=O)NC(=O)Nc1ccc(Cl)cc1	·	?	·	·	?	·	?	-24%
COc1cc(OC)c(C(=O)Nc2ccncc2)cc1OC	·	21%	·	-17%	·	0%	·	0%
CC1CCCCC1NC(=O)COC(=O)c1ccc(N(C)C)cc1 (stereo not given)	0.8%	-8%	-8%	-4%	-43%	-20%	?	20%
COc1ccc(CNC(=O)[C@@H](NC(=O)C2CCN(S(=O)(=O)c3ccccc3)CC2)C(C)C)cc1	·	21%	·	3%	?	-3%	?	-10%
CN(CC(=O)Nc1cccc(F)c1)C(=O)COc1cccc2c1OC(C)(C)C2	·	-6%	·	6%	0%	?	-5%	-13%
Cc1cc(N2CCCC2)nc2ccc(NC(=S)NCCCN3CCC(C)CC3)cc12	·	-15%	·	·	?	0%	?	-20%
COc1ccccc1NC(=O)c1cccc(S(=O)(=O)N2CCCCCC2)c1	-6.4%	-22%	1%	·	-15%[46.1 µM]	·	·	·
CCOC(=O)C(=O)c1c(C)cc2ccccn12	·	13%	·	·	1%	-5%	15%	-9%
CC(=O)C1=C(NC(=O)c2ccc(C(F)(F)F)cc2)C[C@@H]2[C@H]1C2(C)C	·	-19%	·	-2%	-1%	0%	1%[46.1 µM]	-20%
CCC(=O)Nc1c2c(nn1-c1cccc(Cl)c1)CS(=O)(=O)C2	·	1%	·	-11%	·	-11%	·	4%
CCCCNC(=O)Cn1c(-c2ccc(OC)cc2)noc1=O	4.1%	19%	2%	4%	2%	1%	7%	11%
COc1ccc(C(O)c2nccn2Cc2ccccc2)cc1OC (stereo not given)	1.5%	·	1%	-3%	0%	6%	?	2%

From PubChem
